Screens: PubChem BioAssay, National Center for Advancing Translational Sciences (NCATS)
Vaccinia mCherry – qHTS for Stage-Specific Inhibitors of Vaccinia Orthopoxvirus: mCherry Reporter Primary qHTS; Vaccinia virus mCherry reporter infection, fluorescence; about a quarter of the inactives have no number; Potency, µM (highest dose often 36.5 µM), inactives show at the highest dose activity change, negative = inhibition, usual class: inhibitors; actives 0.63% (n = 310,000); AID 720579, 2013; active = well fitted inhibition curve with a large enough effect; inconclusive = small, poorly fitted or top-dose-only effect; inactive = no such curve, though single readings can be large or run the other way; tested in A549 cells; note: nearly all actives have a fitted effect of over 35% in size; inactives centre near -10
VACV Venus inh – qHTS for Stage-Specific Inhibitors of Vaccinia Orthopoxvirus: Venus Reporter Primary qHTS; actives 0.46% (n = 330,000); AID 720580, 2013; Potency, µM (doses to about 36.5 µM), without a hit: at the highest dose activity change, negative = inhibition, usual class: inhibitors; Vaccinia virus Venus reporter expression, fluorescence; active means well fitted inhibition curve with a large enough effect; inconclusive means small, poorly fitted or top-dose-only effect; inactive means no such curve, though single readings can be large or run the other way; tested in A549 cells; note: nearly all actives have a fitted effect of over 30% in size; inactives centre near -10
Starred values were filed as active, the others as inactive; & = joins results of further samples; [ ] = remark or other dose. % is set by controls: 0 for no effect and ±100 for the full control effect; potency is the fitted concentration of half-maximal effect.

How did Cc1oc2nc(SCC(=O)NC3CCCCC3)nc(N)c2c1C do in these assays?
Vaccinia mCherry: -14%; VACV Venus inh: inconclusive

How did Cc1ccc(-c2nn(C)c(=O)c3ccccc23)cc1CNC(=O)c1ccco1 do in these assays?
VACV Venus inh: -19%

Results for O=C1OCCN1C(=O)[C@H]1[C@H](c2ccc(F)cc2)C(c2ccc(F)cc2)=NN1c1ccccc1 ?
Vaccinia mCherry: inactive; VACV Venus inh: -9%

What do the screens show for `S=c1[nH]c2ccc3ccccc3c2[nH]1`?
Vaccinia mCherry: inactive; VACV Venus inh: 1%

What do the screens show for `COc1ccc(/C=N/N(C)C2=NS(=O)(=O)c3ccccc32)cc1`?
Vaccinia mCherry: inactive; VACV Venus inh: -2%

What do the screens show for `Cc1noc(C)c1S(=O)(=O)N(C)C[C@H]1OCc2cnnn2CCCC(=O)N([C@H](C)CO)C[C@@H]1C`?
Vaccinia mCherry: -7%; VACV Venus inh: -21%

Results for Cc1cc(C(=O)CSc2nncs2)c(C)n1Cc1ccco1 ?
Vaccinia mCherry: -9%; VACV Venus inh: -12%

How did CC1=C(C(=O)N2CCOCC2)CC(CC(=O)NC(c2ccccc2)c2ccccc2)C(=O)N1Cc1ccc(C(C)(C)C)cc1 (configuration not stated) do in these assays?
Vaccinia mCherry: 1%; VACV Venus inh: inconclusive

Results for CC(=O)Nc1cccc(-c2cn3cccnc3n2)c1 ?
Vaccinia mCherry: -5%; VACV Venus inh: -10%

What do the screens show for `Cc1ccc(NC(=O)c2ccc(OC(=O)CCN3C(=O)c4ccccc4C3=O)cc2)cc1`?
Vaccinia mCherry: -8%; VACV Venus inh: 0%

How did CC(C)(C)NC(=O)C(c1ccc(-c2ccccc2)cc1)n1c(=O)c(-c2ccco2)nc2ccccc21 (configuration not stated) do in these assays?
Vaccinia mCherry: -12%; VACV Venus inh: 5%

How did Cc1ccc(S(=O)(=O)NC(=O)C2(C)CCN2C(=O)CCc2ccc(Cl)cc2Cl)nc1 (configuration not stated) do in these assays?
Vaccinia mCherry: inactive; VACV Venus inh: 2%

Results for O=C1CCSc2cccc3cccc(c23)N1 ?
Vaccinia mCherry: -5%; VACV Venus inh: -13%

What do the screens show for `Cc1ccc(-c2nnc(Nc3ccc(C(N)=O)cc3)c3ccccc23)cc1S(N)(=O)=O`?
Vaccinia mCherry: -3%; VACV Venus inh: 7%

What do the screens show for `Cc1onc(-c2ccccc2Cl)c1C(=O)NC1CCCCCC1`?
Vaccinia mCherry: -18%; VACV Venus inh: -6%

The last 5 records of the part before lead into the next:
How did CC(C)(C)NC(=O)C(c1ccc(-c2ccccc2)cc1)n1c(=O)c(-c2ccco2)nc2ccccc21 (configuration not stated) do in these assays?
Vaccinia mCherry: -12%; VACV Venus inh: 5%

How did Cc1ccc(S(=O)(=O)NC(=O)C2(C)CCN2C(=O)CCc2ccc(Cl)cc2Cl)nc1 (configuration not stated) do in these assays?
Vaccinia mCherry: inactive; VACV Venus inh: 2%

Results for O=C1CCSc2cccc3cccc(c23)N1 ?
Vaccinia mCherry: -5%; VACV Venus inh: -13%

What do the screens show for `Cc1ccc(-c2nnc(Nc3ccc(C(N)=O)cc3)c3ccccc23)cc1S(N)(=O)=O`?
Vaccinia mCherry: -3%; VACV Venus inh: 7%

What do the screens show for `Cc1onc(-c2ccccc2Cl)c1C(=O)NC1CCCCCC1`?
Vaccinia mCherry: -18%; VACV Venus inh: -6%

Results for COc1cccc(/C=C/c2ccccn2)c1O ?
Vaccinia mCherry: inconclusive; VACV Venus inh: -21%

How did CS(=O)(=O)N1CCN(C(=O)Nc2ccccc2)CC1 do in these assays?
Vaccinia mCherry: inactive; VACV Venus inh: -12%

What do the screens show for `COc1ccc(N2CCN(C(CNC(=O)c3ccc4c(c3)OCO4)c3ccco3)CC2)cc1` (configuration not stated)?
Vaccinia mCherry: -30%; VACV Venus inh: -9%

What do the screens show for `COc1ccccc1-c1c(C)nn2c(-c3ccccc3)cc(C)nc12`?
Vaccinia mCherry: -12%; VACV Venus inh: inconclusive

What do the screens show for `COCc1nnc(NC(=O)c2cc(OC)c(OC)c(OC)c2)s1`?
Vaccinia mCherry: -10%; VACV Venus inh: -1%

What do the screens show for `CCc1ccc(NC(=O)CSc2n[nH]c(C)c2[N+](=O)[O-])cc1`?
Vaccinia mCherry: -7%; VACV Venus inh: -10%

How did Cc1oc(-c2ccc(Cl)cc2)nc1CN1CCCC(C(=O)NCc2ccc(Cl)cc2)C1 (configuration not stated) do in these assays?
Vaccinia mCherry: -21%; VACV Venus inh: -16%

What do the screens show for `Cc1ccc(C)c(OCC(O)CN2CCN(CCN3C(=O)c4cccc5cccc(c45)C3=O)CC2)c1` (configuration not stated)?
Vaccinia mCherry: inconclusive; VACV Venus inh: inconclusive

How did COc1ccc2[nH]c(I)c(CCNC(C)=O)c2c1 do in these assays?
Vaccinia mCherry: inactive; VACV Venus inh: -13%

How did COc1cc(NC(=O)Cc2c(C(=O)O)n(C)c3ccccc23)cc(OC)c1OC do in these assays?
Vaccinia mCherry: inactive; VACV Venus inh: -9%

Results for CCOc1ccccc1-n1c(O)c(C=NCCCn2ccnc2)c(=O)[nH]c1=O ?
Vaccinia mCherry: inactive; VACV Venus inh: -9%

Results for Cc1nnsc1C(=O)Nc1ccccc1 ?
Vaccinia mCherry: -9%; VACV Venus inh: -8%

What do the screens show for `COc1ccc(COC(=O)CCS(=O)(=O)c2ccc(C)cc2)cc1F`?
Vaccinia mCherry: -22%; VACV Venus inh: -16%

Results for Cc1cc([N+](=O)[O-])cc2c1NCC1CC=CC21 (configuration not stated) ?
Vaccinia mCherry: -23%; VACV Venus inh: -17%

How did CCOC(=O)N1CCC2(CC1)C(C#N)=C(N)Oc1c2sc2nc(C)cc(C)c12 do in these assays?
Vaccinia mCherry: inconclusive; VACV Venus inh: -16%

Sorted by molecular weight (descending): three of the compounds above
How did Cc1oc(-c2ccc(Cl)cc2)nc1CN1CCCC(C(=O)NCc2ccc(Cl)cc2)C1 (configuration not stated) do in these assays?
Vaccinia mCherry: -21%; VACV Venus inh: -16%

How did CS(=O)(=O)N1CCN(C(=O)Nc2ccccc2)CC1 do in these assays?
Vaccinia mCherry: inactive; VACV Venus inh: -12%

Results for Cc1nnsc1C(=O)Nc1ccccc1 ?
Vaccinia mCherry: -9%; VACV Venus inh: -8%

New compounds follow
What do the screens show for `CCn1c(SCC(O)c2ccccc2)nnc1-c1ccccc1` (configuration not stated)?
Vaccinia mCherry: inactive; VACV Venus inh: -26%

Results for O=C(CSc1ccc(-c2cccs2)nn1)N1CCCCCC1 ?
Vaccinia mCherry: -13%; VACV Venus inh: -4%

How did CCCCCC1=NN2C(=O)CC(=O)N=C2S1 do in these assays?
Vaccinia mCherry: -10%; VACV Venus inh: -2%

Results for COC/C=C/C1=CC2=CC(=O)C(C)(OC(=O)c3cnc4ccccc4n3)C(=O)C2=CN1CCCCO (configuration not stated) ?
Vaccinia mCherry: 1%; VACV Venus inh: 7%

How did CN(C)[C@@H]1C(=O)C(C(N)=O)=C(O)[C@@]2(O)C(=O)C3=C(O)c4c(O)cccc4[C@@](C)(O)[C@H]3[C@H](O)[C@@H]12 do in these assays?
Vaccinia mCherry: inactive; VACV Venus inh: -2%&-7%

How did Brc1ccc(/C=N/N2CCN(C3c4ccccc4-c4ccccc43)CC2)s1 do in these assays?
VACV Venus inh: -1%

How did CCC(C)NC(=O)c1cc(CC(C)C)on1 (configuration not stated) do in these assays?
Vaccinia mCherry: -15%; VACV Venus inh: 7%

What do the screens show for `c1ccc(C2Nc3ccccc3-c3nc4ccccc4n32)nc1` (configuration not stated)?
Vaccinia mCherry: inconclusive; VACV Venus inh: -26%

How did CCOc1ccc(CNc2ccc(N3CCOCC3)c(C(=O)O)c2)cc1 do in these assays?
VACV Venus inh: -6%

What do the screens show for `CCOC(=O)Cn1c(-c2ccccc2)cc(SC)c(C#N)c1=O`?
Vaccinia mCherry: -25%; VACV Venus inh: -11%

How did CC(=O)Nc1ccc(NC(=O)C2(C)Cc3c(-c4cccc(NC(C)=O)c4)ccnc3O2)cc1 (configuration not stated) do in these assays?
Vaccinia mCherry: 9%; VACV Venus inh: 0%

How did COc1ccc(OC)c(S(=O)(=O)NCC(c2ccco2)S(=O)(=O)c2ccccc2)c1 (configuration not stated) do in these assays?
Vaccinia mCherry: -14%; VACV Venus inh: -17%&-16%

Results for CCCc1nnc2n1N=C(c1ccc([N+](=O)[O-])cc1)CS2 ?
Vaccinia mCherry: inactive; VACV Venus inh: -5%

Results for COc1ccc(NC(=O)N(C)C[C@H]2Oc3ccc(NS(=O)(=O)c4ccccc4)cc3C(=O)N([C@H](C)CO)C[C@@H]2C)cc1 ?
Vaccinia mCherry: -1%; VACV Venus inh: -22%

How did CCC(=O)NC(c1ccc(N(C)C)cc1)c1c(O)ccc2ccccc12 (configuration not stated) do in these assays?
Vaccinia mCherry: inconclusive; VACV Venus inh: -20%

What do the screens show for `CCCc1cc(NCCOCCO)n2c(nc3ccccc32)c1C#N`?
Vaccinia mCherry: -7%; VACV Venus inh: -4%

How did COc1cccc(NC(=O)CSCc2cc(=O)n3nc(C4CC4)sc3n2)c1 do in these assays?
Vaccinia mCherry: -11%[7.34 µM]; VACV Venus inh: -21%[7.34 µM]

Results for CCn1c(=O)c(=O)[nH]c2cc(C(=O)NCC3CCCCC3)ccc21 ?
Vaccinia mCherry: -11%; VACV Venus inh: 25%

Results for COC(=O)c1c(N)sc(C(=O)N2CCOCC2)c1C ?
Vaccinia mCherry: -12%; VACV Venus inh: 2%

What do the screens show for `CCOc1cc2c(C#N)c(N(CC)CC)nc(N)c2c(N)n1`?
Vaccinia mCherry: inconclusive; VACV Venus inh: inconclusive

How did Cc1ccc(-c2nc(C)sc2CC(=O)NCc2ccco2)cc1 do in these assays?
Vaccinia mCherry: -17%; VACV Venus inh: 1%

How did CCOC(=O)c1c(NC(=O)CSc2cn(CCNC(=O)c3ccccc3OC)c3ccccc23)sc2c1CCCC2 do in these assays?
Vaccinia mCherry: -13%; VACV Venus inh: -5%

How did Cc1cc(C)nc(SCc2nnc(SCC(=O)Nc3c(C)cccc3C)o2)n1 do in these assays?
VACV Venus inh: -19%

How did CCn1cc2nc(SCC(=O)Nc3ccc(OC)c(OC)c3)n(Cc3ccc(OC)cc3)c(=O)c2n1 do in these assays?
Vaccinia mCherry: -2%; VACV Venus inh: -1%

How did CCC(CC)N1CCN(CCc2ccccc2)C(CCO)C1 (configuration not stated) do in these assays?
Vaccinia mCherry: -19%; VACV Venus inh: -5%

How did CCOc1ccccc1NC(=O)C(CC(C)C)NC(=O)C1CCC(C)CC1 (configuration not stated) do in these assays?
Vaccinia mCherry: -18%; VACV Venus inh: -15%

How did COC(=O)[C@]12CCCCC=C1N(Cc1ccco1)C(=O)[C@H](CC(=O)N1CCOCC1)C2 do in these assays?
Vaccinia mCherry: 16%; VACV Venus inh: 10%

What do the screens show for `COc1cc(C)cc2oc(=O)c(CC(=O)N3C[C@H]4C[C@@H](C3)c3cccc(=O)n3C4)c(C)c12`?
Vaccinia mCherry: 3%; VACV Venus inh: -7%

Results for Cc1cc(C)n2nc(C(=O)NCc3ccccc3)nc2n1 ?
Vaccinia mCherry: -11%; VACV Venus inh: 2%

How did CCOC(=O)c1c(C)oc2nc(C)nc(N3CCN(c4ccc(C)cc4C)CC3)c12 do in these assays?
Vaccinia mCherry: -12%; VACV Venus inh: -9%

What do the screens show for `CCOC(=O)C1=C(NC#N)OC(C)=C(C)C1c1ccc(O)cc1` (configuration not stated)?
VACV Venus inh: -10%

How did CCCn1c(NCc2ccccc2C)nc2ccccc21 do in these assays?
Vaccinia mCherry: -19%; VACV Venus inh: -7%

What do the screens show for `OC(c1ccc(F)c(F)c1)c1nc(-c2ccc(Cl)cc2)cs1` (configuration not stated)?
Vaccinia mCherry: 11%; VACV Venus inh: 2%

Results for O=C(C[C@H]1C/C=C\C[C@@H](Cc2ccc(F)cc2)C(=O)O[C@@H](c2ccccc2)CNC1=O)N[C@@H](CO)Cc1ccccc1 ?
Vaccinia mCherry: inactive; VACV Venus inh: -2%

What do the screens show for `CCCCNC(=O)c1nc(C2CCN(S(=O)(=O)c3c(F)cccc3F)CC2)oc1-c1ccccc1`?
Vaccinia mCherry: inactive; VACV Venus inh: 2%

Results for COc1ccc(/C(C)=N/OC/C(O)=C(\C#N)c2nc3ccccc3[nH]2)cc1OC ?
Vaccinia mCherry: -4%; VACV Venus inh: -4%

Results for COC(=O)C1C(=O)N2CCCSC2=C(C#N)C1c1cccs1 (configuration not stated) ?
Vaccinia mCherry: -25%; VACV Venus inh: -15%

Results for O=C(Nc1ccccc1)c1cccc(NC(=O)c2ccco2)c1 ?
Vaccinia mCherry: -11%; VACV Venus inh: -7%

Results for O=C(CSc1nc2ccccc2o1)Nc1nccs1 ?
Vaccinia mCherry: inactive; VACV Venus inh: 1%

What do the screens show for `O=C1c2cccnc2C(Nc2ccccc2Br)N1Cc1ccco1` (configuration not stated)?
Vaccinia mCherry: inactive; VACV Venus inh: -6%

What do the screens show for `COc1ccc(-c2[nH]c(-c3ccccc3)nc2SCC(=O)Nc2ccc3c(c2)OCCO3)cc1`?
Vaccinia mCherry: -6%; VACV Venus inh: -8%

Results for CC1(C(=O)NS(=O)(=O)Cc2ccccc2)CCN1C(=O)Cc1ccccc1Cl (configuration not stated) ?
Vaccinia mCherry: 11%; VACV Venus inh: -4%

What do the screens show for `CCSC1=NC2(CCCCC2)Nc2sc3c(c21)CCCC3`?
Vaccinia mCherry: -9%; VACV Venus inh: -22%

How did Cc1ccc2c(CSc3nnnn3C)cc(=O)oc2c1 do in these assays?
Vaccinia mCherry: -14%; VACV Venus inh: -5%
